Screening results: PubChem, National Center for Advancing Translational Sciences (NCATS)
VDR inh: inhibitors of human vitamin D receptor | hit rate 0.93% among 400,000 | Potency, µM, inactives show max response, negative = inhibition, usual class: inhibitors | P11473 | AID 504847 | VDR-SRC2-3 peptide fluorescence polarization, 2 h; active means well fitted inhibition curve with a large enough effect; inconclusive means small, poorly fitted or top-dose-only effect, or another doubt; inactive means no such curve, though single readings can be large or run the other way; further: series mostly up to about 120 µM
Target sequence (P11473 whole entry, looked up): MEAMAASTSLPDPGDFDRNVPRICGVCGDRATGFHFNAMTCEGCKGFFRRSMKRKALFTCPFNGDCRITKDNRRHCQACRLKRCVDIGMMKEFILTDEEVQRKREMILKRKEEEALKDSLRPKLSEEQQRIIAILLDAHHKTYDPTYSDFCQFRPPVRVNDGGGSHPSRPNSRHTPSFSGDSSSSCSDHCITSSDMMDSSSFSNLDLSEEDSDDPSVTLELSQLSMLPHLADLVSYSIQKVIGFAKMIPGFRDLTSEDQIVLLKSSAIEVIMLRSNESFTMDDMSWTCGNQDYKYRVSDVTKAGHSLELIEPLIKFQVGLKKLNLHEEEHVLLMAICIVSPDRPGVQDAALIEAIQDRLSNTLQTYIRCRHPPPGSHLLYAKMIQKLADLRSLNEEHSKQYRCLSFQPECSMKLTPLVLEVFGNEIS
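Measured by FP: displacement of SRC2-3 coactivator peptide from VDR by library compounds, following a two-hour ambient incubation.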
The depositor's hits bear a star; ? = inconclusive; & = joins results of further samples. On the % scale 0 is the no-effect control and ±100 the full control effect; potency means the concentration at half of the fitted maximal effect. An excerpt; rates above refer to the full screens.

smiles | VDR inh
Nc1nc(-c2ccccc2)c(N=Nc2ccccc2Cl)s1 | 1%
COc1ccc(C(=O)C2CCCN(C(=O)c3cccs3)C2)cc1F (configuration not stated) | 1%
CCc1ccc(OC)c(S(=O)(=O)NCCOc2ccccc2)c1 | 15%
Cc1ccccc1N1C(=O)C(Cl)=C(N2CCN(c3ccccc3)CC2)C1=O | -7%
COc1cc(/C=N/NC(=O)CCc2c(C)n[nH]c2C)cc(OC)c1OC | -8%
O=c1cc(-c2ccccc2)nc2c(-c3ccccc3)c(C(F)(F)F)[nH]n12 | -22%
O=C(NCc1ccc2c(c1)OCO2)c1cc(-c2cc(Cl)ccc2O)n[nH]1 | 1%
COc1ccc(C(=O)NCC(c2ccccc2)c2ccccc2)cc1S(=O)(=O)N1CCOCC1 | 2%
C=C(C)COc1ccc(-c2nc(N)nc(C(F)(F)F)c2-c2ccc(OC)cc2)c(O)c1 | -9%
COc1ccc(-n2c(C)n[nH]c2=O)cc1OC | -6%
COc1ccc(OC)c(CNS(=O)(=O)c2cc(CN3C(=O)c4cccnc4C3=O)ccc2OC)c1 | ?
CCOc1ccc(-c2nc3c(c(SCC(=O)N4CCCCC4)n2)Cc2ccccc2O3)cc1 | -7%
CCCN1CCC(=O)N(CCO)CC1 | 0%
Cc1cccc(-n2c(Cc3ccccc3)nnc2SCc2nc(-c3cccs3)no2)c1 | 4%
CCOC(=O)c1sc(N)nc1-c1ccccc1 | ?
COc1ccc(-c2csc(N(CCCN(C)C)C(=O)c3cc(OC)c(OC)c(OC)c3)n2)cc1 | 12%
CCOC(=O)c1c(NC(=O)CSc2nnc(-c3cccc(C)c3)n2CC)sc(C(C)=O)c1C | 7%
O=C(CCC1CCCC1)Nc1cc(C(F)(F)F)ccc1N1CCOCC1 | -5%
Cc1cc(C)c(NC(=O)CS(=O)CC(=O)Nc2ccc(F)cc2F)c(C)c1 (configuration not stated) | 26%
CCC(C)NS(=O)(=O)c1cc2c3c(c1)CCN3C(=O)CC2 (configuration not stated) | -11%

Of the compounds above, these have an NH in an aromatic ring.
smiles | VDR inh
COc1cc(/C=N/NC(=O)CCc2c(C)n[nH]c2C)cc(OC)c1OC | -8%
O=c1cc(-c2ccccc2)nc2c(-c3ccccc3)c(C(F)(F)F)[nH]n12 | -22%
O=C(NCc1ccc2c(c1)OCO2)c1cc(-c2cc(Cl)ccc2O)n[nH]1 | 1%
COc1ccc(-n2c(C)n[nH]c2=O)cc1OC | -6%

Carrying on.
smiles | VDR inh
O=C(CC1CCCCC1)OCn1nnc2ccccc2c1=O | -21%
O=c1[nH]cnc2c1sc1nc(-c3ccccc3)c3c(c12)CCCC3 | -7%
COCC1=C2c3ccccc3[C@@H]3CNC(=O)C3(C(=O)OC)C[C@@H]2n2c(=O)n(-c3ccccc3)c(=O)n2C1 (some centres not stated) | -2%&12%
CCOC(=O)C(=CNc1ccc(N2CCOCC2)cc1)C(=O)OCC | -3%
CC(C(=O)N(C)C)N(C#N)c1nc(N(C)C)nc(N(C)C)n1 (configuration not stated) | -7%
O=c1c(-c2nnc(SCc3ccc(Cl)cc3)o2)cccn1Cc1ccccc1 | 19%
CCOc1ccc(CCNC(=O)c2sc3nc4n(c(=O)c3c2C)CCC4)cc1 | 5%
Cc1cc(-c2ccc(Cl)cc2)n2nc(C)cc2n1 | -9%
Cc1cc(C)c2[nH]c(=O)c(C(c3nnnn3Cc3ccc4c(c3)OCO4)N3CCC(C)CC3)cc2c1 (configuration not stated) | -3%
Cn1cccc1C(=O)N1CCN(S(=O)(=O)c2ccccc2)CC1 | -1%
C/C(=N\OCC(=O)OCC(=O)N(C)c1ccccc1)c1ccc2c(c1)OCO2 | -3%
N#Cc1nc(-c2ccc(Cl)cc2)oc1NCCc1ccccn1 | -19%
COc1ccc(Cl)cc1-n1c(=S)sc2c(=O)[nH]c(SCC(=O)NCC3CCCO3)nc21 (configuration not stated) | -19%
CC(C)OC(=O)c1cc(Cl)c(=O)n(Cc2ccc(Cl)cc2Cl)c1 | -11%
CCOc1ccccc1C(=O)Nc1cc(C)ccc1NC(=O)c1ccco1 | 4%
Cn1nnnc1SCC(=O)NC1CCCc2ccccc21 (configuration not stated) | 17%
O=C(NNC(=O)c1ncc(Cl)c(Cl)c1Cl)c1ccc(F)cc1 | -6%
O=C(CNS(=O)(=O)c1ccc2ccccc2c1)OCc1csc(-c2ccccc2)n1 | 9%
Cc1oc2ncn(CC(C)C)c(=O)c2c1C(=O)N(CCN(C)C)Cc1ccccc1 | 17%
Cc1cccc(N/C(N)=N/c2nc(CSc3ccc(Cl)cc3)cc(=O)[nH]2)c1 | -2%
O=C(Nc1nnc(-c2ccco2)o1)c1ccc(S(=O)(=O)N2CCOCC2)cc1 | 16%
O=C(Cc1c(F)cccc1Cl)Nc1ccc(S(=O)(=O)Nc2nccs2)cc1 | -1%
Cc1cc(NC(=O)COC(=O)CCS(=O)(=O)c2cc(Cl)ccc2Cl)no1 | -9%
COc1ccc2nc(NC(=O)C3CCCN(S(=O)(=O)c4cccs4)C3)sc2c1 (configuration not stated) | 13%
O=C(CCc1ccccc1)Nc1ccc(NC(=O)C2CC2)nc1 | -5%
COc1cc(/C=C2\SC(c3ccccc3)=NC2=O)cc(Cl)c1O | ?
Oc1ccc(Cl)cc1/C=C/c1ccc2cccc(O)c2n1 | 8%
COc1ccc(C)cc1NC(=O)CCNC(=O)Cn1ccc2ccccc2c1=O | 10%&-18%
Cc1ccc(NC(=O)CCSc2nnc(Cc3ccccc3)o2)cc1 | -28%
Cc1ccc(S(=O)(=O)NCc2ccncc2)cc1C | -6%
Cc1ccc(C)c(N2CCN(C(=O)CCc3nnc4n(CC(C)C)c(=O)c5ccccc5n34)CC2)c1 | -1%
CC(C)(C)NC(=O)C(Cc1ccccc1)N1C(=O)c2ccccc2C1=O (configuration not stated) | 18%
Nc1ccccc1-c1ccccc1N | -6%
CCOc1ccccc1Oc1coc2cc(O)ccc2c1=O | -11%
Cc1ccc(S(=O)(=O)c2nc(-c3ccco3)oc2N2CCC(C)CC2)cc1 | -13%
CNC(=O)CSc1nc(N)c2c3c(sc2n1)CCC3 | 11%
CN(C)S(=O)(=O)c1ccc(Cl)c(NC(=O)COC(=O)c2cc(-c3ccccc3)nc3ccccc23)c1 | -6%
COc1cc(C)ccc1OCc1cc(C(=O)N2CCC(c3ccc(F)cc3)C2)no1 (configuration not stated) | 16%
Nc1cc(N)nc(SCC(=O)NC(=O)NC2CCCC2)n1 | -9%
COCCNC(=O)Cn1nc(Cc2ccncc2)c2ccccc2c1=O | -18%

Among those listed so far, these contain a cyano group.
smiles | VDR inh
CC(C(=O)N(C)C)N(C#N)c1nc(N(C)C)nc(N(C)C)n1 (configuration not stated) | -7%
N#Cc1nc(-c2ccc(Cl)cc2)oc1NCCc1ccccn1 | -19%

Reprinted at random: 7 compounds from above, in no set order.
smiles | VDR inh
Cc1ccc(C)c(N2CCN(C(=O)CCc3nnc4n(CC(C)C)c(=O)c5ccccc5n34)CC2)c1 | -1%
Cc1ccc(NC(=O)CCSc2nnc(Cc3ccccc3)o2)cc1 | -28%
CNC(=O)CSc1nc(N)c2c3c(sc2n1)CCC3 | 11%
CN(C)S(=O)(=O)c1ccc(Cl)c(NC(=O)COC(=O)c2cc(-c3ccccc3)nc3ccccc23)c1 | -6%
CCOc1ccccc1Oc1coc2cc(O)ccc2c1=O | -11%
Nc1cc(N)nc(SCC(=O)NC(=O)NC2CCCC2)n1 | -9%
COc1cc(/C=C2\SC(c3ccccc3)=NC2=O)cc(Cl)c1O | ?

(listing goes on)
COC(=O)c1cnc2ccccc2n1
  VDR inh: 5%
Cc1nc(SCC(=O)NC(=O)NC(C)(C)C)nc(C)c1C
  VDR inh: -4%
COC(C(=O)Nc1ccnn1C1CCN(Cc2ccc(C)o2)CC1)c1ccccc1 (configuration not stated)
  VDR inh: 3%
O=C(CSc1cn[nH]n1)Nc1ccc(O)c(C(=O)O)c1
  VDR inh: 17%
CCSc1nnc2n1C(C)(C)Cc1ccccc1-2
  VDR inh: -1%
CCc1nc(C#N)c(N2CCCCC2)o1
  VDR inh: -14%
C=CCCCCCCCCC(=O)NN
  VDR inh: -5%
Cc1cc(C)n2nc(C)c(Br)c2n1
  VDR inh: -7%
O=C(C(=O)c1cccnc1)c1cccnc1
  VDR inh: -18%
Cc1ccc(N(CC(=O)NCc2ccco2)C(=O)CCC(=O)Nc2nccs2)cc1C
  VDR inh: 1%
CC1(C)C=C2[C@H]3CC[C@@H]4[C@@]5(C)CCC(=O)C(C)(C)[C@@H]5CC[C@@]4(C)[C@]3(C)CC[C@@]2(C(=O)O)CC1
  VDR inh: -2%
O=C(COc1ccc([N+](=O)[O-])cc1)N1CCc2ccccc2C1
  VDR inh: -4%
Cn1c(=O)c2c(n(C)c1=O)=NC1(CCCCC1)N=2
  VDR inh: -9%
CC(NS(=O)(=O)c1cccc(S(=O)(=O)c2ccccc2)c1)C(=O)O (configuration not stated)
  VDR inh: 6%
CC1(C)O[C@@H]2C[C@H]3[C@H]4C[C@H](F)C5=CC(=O)CC[C@]5(C)[C@@H]4[C@H](O)C[C@]3(C)[C@]2(C(=O)CO)O1
  VDR inh: -11%
CNC[C@H]1Oc2c(NS(=O)(=O)c3ccc(F)cc3)cccc2C(=O)N([C@H](C)CO)C[C@@H]1C
  VDR inh: 0%
COc1ccc(C2=NS(=O)(=O)N(C)C(C(=O)NC3CCCC3)=C2)cc1OC
  VDR inh: -9%
CC(NC(=O)c1cccs1)c1n[nH]c(=S)n1C (configuration not stated)
  VDR inh: -6%
NS(=O)(=O)c1ccc(N/N=C/c2ccc(O)c(O)c2O)c([N+](=O)[O-])c1
  VDR inh: ?
NNC(=O)CSc1c(-c2ccccc2)c2cc(Cl)ccc2[nH]c1=O
  VDR inh: -16%
O=S(=O)(NC1=NCCC1)c1ccc(F)cc1
  VDR inh: -2%
CC(C(=O)NN)c1ccc([N+](=O)[O-])cc1 (configuration not stated)
  VDR inh: 28%
CCCCOc1ccc(C(=O)NCCc2csc(-c3ccc(OC)cc3)n2)cc1
  VDR inh: -6%
S=c1[nH]nc(COc2ccccc2)n1/N=C/c1ccc(Cl)c(Cl)c1
  VDR inh: 2%
O=C(NCc1csc2ccc(Cl)cc12)Nc1ccccc1
  VDR inh: 9%

Cc1ccsc1/C=C1\SC(=S)N(CC2CCCO2)C1=O (configuration not stated)
  VDR inh: -1%
CC(=O)c1cccc(NC(=O)CNC(=O)c2sc3ccccc3c2Cl)c1
  VDR inh: -10%
O=C(CCNC(=O)c1ccc([N+](=O)[O-])cc1)Nc1ccc(F)cc1F
  VDR inh: 20%
CCN(CC(=O)NCc1ccc(F)cc1)C(=O)C(C)Oc1cccc(Cl)c1 (configuration not stated)
  VDR inh: 4%
CCCn1c(SCC(=O)N2c3ccccc3CC2C)nnc1-c1ccco1 (configuration not stated)
  VDR inh: -4%
CCOc1ccc(OCC)c(NS(=O)(=O)c2ccc(-c3coc(C)n3)cc2)c1
  VDR inh: 10%
COc1ccc(-c2nnc(NC(=O)c3ccccc3[N+](=O)[O-])s2)c(OC)c1
  VDR inh: 6%
COc1ccc(CNC(=O)C/C(C)=N/NC(=O)COc2ccccc2)cc1
  VDR inh: -2%
CC(C)CNS(=O)(=O)c1ccc(CCC(=O)Nc2ccc3c(c2)OCCO3)cc1
  VDR inh: 3%
Cc1ccnc(N(C(=O)Nc2ccccc2)C2=NCC(C)(C)S2)c1
  VDR inh: 0%
O=C(C1COc2ccccc2O1)N1CCn2c(nc3ccccc32)C1 (configuration not stated)
  VDR inh: -13%
CCC(C)NC(=O)CSc1nc2ccccc2c(=O)n1-c1c(C)n(C)n(-c2ccccc2)c1=O (configuration not stated)
  VDR inh: -25%
O=C(c1cc(C2CC2)nn1-c1ccccc1)N1CCN(S(=O)(=O)c2ccccc2)CC1
  VDR inh: -12%
Cc1ccc(C2c3[nH]c4ccccc4c3C[C@H]3C(=O)N(c4ccccc4C(=O)N4CCC[C@H]4C(=O)O)C(=O)N23)cc1 (some centres not stated)
  VDR inh: -15%
Cc1cc(NC(=O)c2cc(-c3ccccc3Cl)nc3ccccc23)no1
  VDR inh: 12%
COc1ccc(-c2nnc(-c3ccc(N)cc3)o2)cc1
  VDR inh: 6%
O=C(CSc1nnc(-c2cccnc2)n1Cc1ccco1)c1ccc2ccccc2c1
  VDR inh: -19%
CCOC(=O)c1nn(-c2cccc(C)c2)c2nc(-c3ccccc3)c(C#N)c(=O)n12
  VDR inh: 1%
C#CC(C)(CC)NC(=O)Cn1nnc(-c2ccc(OCc3ccccc3Cl)cc2)n1 (configuration not stated)
  VDR inh: -12%
CC1CCc2c(sc3nc(SCC(=O)O)n(-c4ccccc4)c(=O)c23)C1 (configuration not stated)
  VDR inh: -10%
COCCNC(=O)CSc1nc(-c2ccc(C)cc2)[nH]c1-c1ccc(OC)cc1
  VDR inh: -4%
CCOC(=O)C1CCNC(=O)C1=O (configuration not stated)
  VDR inh: -14%
CCOC(=O)C(NC(=O)Nc1ccc(F)cc1F)(Oc1ccc(F)cc1)C(F)(F)F (configuration not stated)
  VDR inh: -5%
Cn1c(=O)c2c(nc(N/N=C/c3ccc(OC(=O)c4ccco4)cc3)n2Cc2ccccc2)n(C)c1=O
  VDR inh: -1%
CC(=O)c1ccc(NC(=O)C2CCCN(S(=O)(=O)c3ccc(-n4cnnn4)cc3)C2)cc1 (configuration not stated)
  VDR inh: 4%

Cc1cc(C)c(NC(=O)C2CCCCN2C)c(C)c1 (configuration not stated)
  VDR inh: 5%
Cc1ccc(N=C2NC(=O)CS2)c(C)c1
  VDR inh: 1%
O=C(Nc1cccc2cccnc12)c1ccccc1Cl
  VDR inh: 2%
Cc1ccc(NS(=O)(=O)c2c(C)[nH]c(C)c2C(=O)N2CCCC2)cc1
  VDR inh: -8%
CCn1nc(C)c2c(-c3ccccc3)cc(=O)n(C(C)C(=O)Nc3ccc(OC)c(OC)c3)c21 (configuration not stated)
  VDR inh: 4%
CCC(C(=O)NCC1CCCO1)N(Cc1ccccc1)C(=O)CNS(=O)(=O)c1ccccc1 (configuration not stated)
  VDR inh: 3%
COc1ccc(C(=O)N2CCN=C2SCc2cccnc2)cc1OC
  VDR inh: -25%
Cc1ccc2[nH]cc(CCNC(=O)C3CCCO3)c2c1 (configuration not stated)
  VDR inh: 1%
O=C(Cc1ccccc1)NCCN1CCCC1
  VDR inh: -7%
